# HPGD inh = qHTS Assay for Inhibitors of HPGD (15-Hydroxyprostaglandin Dehydrogenase); 15-hydroxyprostaglandin dehydrogenase [NAD(+)] (Homo sapiens), P15428; purified HPGD, NADH fluorescence kinetic, PGE2 substrate; Potency, µM, inactives show at the top dose activity change, negative = inhibition, most hits filed as inhibitors; hit rate 4.3% among 150,000; AID 894, 2007; active = well fitted inhibition curve with a large enough effect (not every such curve was filed as active); inconclusive = small, poorly fitted or top-dose-only effect, or another doubt; inactive = no such curve, though single readings can be large or run the other way;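 further: top concentration of the series not given in the record; plate controls included wells without enzyme; inactives centre near -10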
# Target sequence (P15428 whole entry, looked up): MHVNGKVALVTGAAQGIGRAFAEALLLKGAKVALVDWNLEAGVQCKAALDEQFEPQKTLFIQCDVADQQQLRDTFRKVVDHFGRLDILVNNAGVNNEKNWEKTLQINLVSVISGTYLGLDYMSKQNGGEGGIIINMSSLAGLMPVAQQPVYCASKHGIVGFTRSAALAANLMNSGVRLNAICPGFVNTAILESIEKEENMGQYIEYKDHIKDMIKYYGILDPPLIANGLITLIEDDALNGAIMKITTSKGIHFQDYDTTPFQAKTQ
#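 NADH formation kinetics: reaction with 30 uM PGE2 and 1 mM NAD+ (final), 20 nM enzyme, Tris-HCl pH 8 with Tween 20, after 15 min compound preincubation at room temperature. Fluorescence change, last versus first of five reads.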
# Numbers without * were called inactive; ? = inconclusive; & = joins results of further samples. On the % scale 0 is the no-effect control and ±100 the full control effect; potency means the concentration at half of the fitted maximal effect.
item	Molecule	HPGD inh
1	O=C(Cn1cnc2c(nnn2-c2ccc(F)cc2)c1=O)NCC1CCCO1 (centres undefined)	-6%
2	COC(=O)/C(C(C)=O)=C(\C=C\N(C)C)N(C)C	-8%
3	C/C(O)=C/c1nc2ccccc2[nH]c1=O	-14%
4	Cc1csc(NC(=O)CSc2nnc(-c3ccoc3C)n2CCc2ccccc2)n1	-7%
5	Cc1ccc(OCCC(=O)OCC(=O)C(C)(C)C)cc1	-8%
6	COc1ccc(C(=O)NN/C(C)=C/C(=O)C(F)(F)C(F)(F)C(F)(F)F)cc1	-14%
7	Clc1ccc(-n2nnnc2-c2cnc(-c3ccccn3)nc2-c2cccs2)cc1	-29%
8	Cc1sc(NC(=O)CN(Cc2ccccc2)C(=O)C(C)C)c(C(N)=O)c1C	0%
9	CCN(CC)CCCn1c(=S)[nH]c2cc(C(=O)OC)ccc2c1=O	-9%
10	O=C(CSc1ncn(-c2ccccc2)n1)Nc1nc2c(s1)CCCC2	?
11	CN(C)c1ccc(/C=C/c2ccncc2)cc1	-6%
12	COC(=O)c1ccccc1NC(=O)CN(c1cc(OC)ccc1OC)S(C)(=O)=O	-10%
13	CCN(CC)S(=O)(=O)c1cc(C)c(C)cc1Br	-22%
14	Cc1cccc(CSCc2nnc(N)s2)c1	28µM*
15	CCOn1c(=O)c(-c2ccc(Cl)cc2)[n+]([O-])c2ccccc21	-16%
16	COc1ccc(S(=O)(=O)N2CCC(C(=O)NCc3cccc(OC)c3)CC2)cc1	-11%
17	CC(C)(C)NC(=O)/C(=C\C=C\c1ccccc1)NC(=O)c1ccc([N+](=O)[O-])cc1	-12%
18	Cn1ccc(C(=O)Nc2ccc(Br)cc2Br)n1	?
19	COC(=O)CCCC1=CC2=C(c3ccccc3)C(=O)C(C)(OC(=O)C3CCCC3)C(=O)C2=CN1CCc1ccccn1 (centres undefined)	-1%
20	Cc1onc(-c2ccccc2)c1C(=O)N1CCN(C(=O)c2ccco2)CC1	-17%

# Sorted by the number under HPGD inh (low to high): five from the list above
nr	Molecule	HPGD inh
13	CCN(CC)S(=O)(=O)c1cc(C)c(C)cc1Br	-22%
20	Cc1onc(-c2ccccc2)c1C(=O)N1CCN(C(=O)c2ccco2)CC1	-17%
17	CC(C)(C)NC(=O)/C(=C\C=C\c1ccccc1)NC(=O)c1ccc([N+](=O)[O-])cc1	-12%
16	COc1ccc(S(=O)(=O)N2CCC(C(=O)NCc3cccc(OC)c3)CC2)cc1	-11%
11	CN(C)c1ccc(/C=C/c2ccncc2)cc1	-6%

# Next records:
item	Molecule	HPGD inh
21	CCOC(=O)c1c(NC(=O)C2=C(C)NC(=S)NC2c2ccccc2C(F)(F)F)sc(C)c1C (centres undefined)	?
22	CCN1C(=O)N[C@@H](c2ccc(Br)cc2)C(C(C)=O)=C1C	-7%
23	CC(C)(CNC(=O)C1CCCC1)CNC(=O)C1CCCC1	0%
24	COc1ccc(Cl)cc1N(CC(=O)N1CCN(Cc2ccccc2)CC1)S(C)(=O)=O	-1%
25	Cc1noc(C)c1COC(=O)CCc1ccc(S(=O)(=O)N2CCCCC2)cc1	-10%
26	COc1ccc(/C=C(\NC(=O)c2ccccc2)C(=O)N/N=C/c2sccc2C)cc1	?
27	Cc1cc(=O)[nH]c(NN=C(CC(C)C)CC(C)C)n1	-16%
28	COC(=O)N(C)c1ccccc1C(=O)N1CCOCC1	-11%
29	Cc1cccc(Cn2cnc3c(nnn3Cc3ccc(Cl)cc3)c2=O)c1	13µM*
30	C=C1C(=O)O[C@@H]2[C@@H]1CC/C(C)=C\CC[C@@]1(C)O[C@H]21	-1%
31	CCOC(=O)CCP(=O)(O)C(O)c1ccc(OC)cc1 (centres undefined)	-14%
32	Cc1cc(N2CCC(C(=O)NCC3CC3)CC2)nc(-c2ccccc2)n1	-25%
33	Fc1ccc(C2CC(c3ccc(F)cc3)n3ncnc3N2)cc1 (centres undefined)	-12%
34	CCCN1C(=O)/C(=c2\s/c(=C3\C=Cc4ccccc4N3CC)c(=O)n2-c2ccccc2)SC1=S	-8%
35	Cc1sc(NC(=O)CSc2nnc3scc(-c4ccccc4)n23)c(C#N)c1C	0%
36	Cc1cc(-n2c(C)cc(C(=O)CN3C(=O)NC4(CCCCCC4)C3=O)c2C)no1	-3%
37	O=C(Nc1cccc2ccccc12)/C(=C/c1ccc([N+](=O)[O-])cc1)NC(=O)c1ccccc1	-4%
38	O=c1oc(Cl)c(Cl)c2ccccc12	-12%
39	COc1ccc(-n2c(=O)[nH]cc(C(=O)N3CCCc4ccccc43)c2=O)cc1	-11%
40	c1ccc2c(CSCc3cccc4ccccc34)cccc2c1	-6%
41	Cc1ccccc1C(=O)NNC(=O)c1ccoc1C	5%
42	Cc1ccc(SC(C)C(=O)NCC(C)C)cc1 (centres undefined)	?
43	COc1ccc(OCC(=O)Nc2ccc(S(=O)(=O)N3CCOCC3)cc2)cc1	4%
44	COc1ccc(CCCc2nnc(SCC(=O)N/N=C\c3ccc(O)c(OC)c3)o2)cc1C	-22%
45	COC(=O)N1CCC2(CC1)CN(c1ccccn1)C2	0%
46	Cc1cccc(CNc2ccnc(-c3ccc(N(C)C)cc3)n2)c1	?
47	O=S(=O)(c1ccc(C2CCCCC2)cc1)N1CCCC1	-4%
48	COc1ccccc1N(CC(=O)N/N=C/c1c(O)ccc2ccccc12)S(C)(=O)=O	-22%
49	CCCNS(=O)(=O)c1ccc(OCC(=O)NCc2ccc3c(c2)OCO3)cc1	-4%
50	CCOc1ccc(C(=O)NCc2ccccn2)cc1	-18%
51	Fc1cccc(Cl)c1CSc1ncn[nH]1	-17%
52	COCCN1C(=O)N[C@@H](c2ccc(Br)cc2)C(C(=O)OC)=C1C	-1%&-3%
53	CN(C)CCCNC(=O)c1ccc(Cl)c(S(=O)(=O)N(C)c2ccccc2)c1	-15%
54	CCc1nn2cc(C(=O)c3cc(Cl)ccc3O)cnc2c1-c1ccc(F)cc1	16µM*
55	CCCCNc1nc2ccccc2[nH]1	-10%
56	O=C(Nc1ccc(S(=O)(=O)N2CCCCC2)cc1)C1CCCN(C(=O)c2ccc(Cl)cc2)C1 (centres undefined)	?
57	Cn1c(CN2CCCC2)nc2cc(NC(=O)C3CCCCC3)ccc21	-10%
58	O=C(CN1CCCCCCC1)N/N=C/c1ccc(F)cc1F	-9%
59	CCC(=O)N1c2ccccc2-c2nnc(SC)nc2OC1c1ccc(OC)c(OC)c1 (centres undefined)	-12%
60	Oc1ccc(N=Nc2n[nH]c(-c3ccc(Cl)cc3)n2)cc1	-2%
61	O=C(O)c1ccc(/C=N/Nc2nnnn2-c2ccccc2)cc1	-21%
62	CC(=O)OC1=C(C#N)Cn2ccc3cccc1c32	?
63	CCOC(=O)N1CCN(C(=O)c2ccc(N(C)S(C)(=O)=O)cc2)CC1	-2%
64	Cn1c(O)c(C=Nc2ccc(Cc3ccncc3)cc2)c(=O)n(C)c1=O	-11%
65	c1ccc2sc(Cc3nnc4n3CCCCC4)nc2c1	-21%
66	COC(=O)c1cc(NC(=S)Nc2cc(Cl)cc(Cl)c2)cc(C(=O)OC)c1	?
67	CCc1nnc2n1N=C(c1ccc(-c3cc(Cl)ccc3Cl)o1)CS2	-8%
68	C=CCn1c(SCC(=O)NC(=O)c2cccc([N+](=O)[O-])c2)nnc1-c1ccccc1F	-16%
69	CN(Cc1cccs1)CC(O)COCc1ccco1 (centres undefined)	3%
70	Cc1ccccc1NC(=O)Cc1nnc(SCC(=O)c2ccc(Br)cc2)n1C	-19%

# Additional entries.
item	Molecule	HPGD inh
71	N#C/C(C(=O)Oc1ccccc1)=C1\C=Cc2ccccc2N1	?
72	COc1ccc(Oc2c(Cl)cnn(-c3ccccc3)c2=O)cc1	-7%
73	NNS(=O)(=O)c1ccc(Cc2ncc(C(F)(F)F)cc2Cl)s1	-12%
74	COc1cc(/C=C(\NC(C)=O)C(=O)Nc2ccc(NC(C)=O)cc2)ccc1OC(C)=O	-12%
75	COc1ccc(S(=O)(=O)NCc2ccc(C(=O)N(C)Cc3ccco3)cc2)cc1	?
76	CC(C)CCNC(=O)c1ccc2c(SCC(=O)O)c3c(nc2c1)CCCC3	28µM*
77	Cc1[nH]c2ccccc2c1Cc1n[nH]c(=S)o1	?
78	O=C(Cn1nnc(-c2ccc(N3CCOCC3)cc2)n1)OC1CCCCC1	-13%
79	Cc1cccc(N2CCN(c3cccc(C)c3)C2c2cccnc2)c1	-12%
80	Cc1ccc(/C=N/N=C/c2ccc(C)cc2)cc1	-3%
81	CC(CC(=O)Nc1ccc(Cl)c([N+](=O)[O-])c1)c1ccccc1 (centres undefined)	-17%
82	CCOc1ccc(N(CC(=O)Nc2ccc(OC)cc2)S(C)(=O)=O)cc1	-10%
83	O=c1c2c(-c3ccc(Cl)cc3)csc2nc2n1CCC2	1%
84	Cc1ccc(-c2nsc(SCC(=O)Nc3ccc4c(c3)OCO4)n2)cc1	-13%
85	O=C(O)CCC(=O)NC1CCCCC1	-4%
86	Cc1nc(N)nc2c1CCCC2	-12%
87	O=C(CSc1nc(-c2ccco2)cc(C(F)(F)F)n1)N1CCCc2ccccc21	?
88	COc1cc(CNn2cn[nH]c2=S)cc(Cl)c1OCc1ccccc1	?
89	COc1ccc(OC)c(NC(=S)N2CCC(C(O)(c3ccccc3)c3ccccc3)CC2)c1	-4%
90	O=C(NCc1cccnc1)C1CC(=O)N(C2CCCCC2)C1 (centres undefined)	-8%
91	O=C(CCN1C(=O)c2ccccc2C1=O)N1CCN(c2ccccc2)CC1	-4%
92	Nn1c(Cc2ccccc2F)nnc1SCCOc1ccc(Cl)cc1	?
93	CCC(C)NS(=O)(=O)c1ccc(S(=O)(=O)Nc2cc3c(cc2C(C)=O)OCO3)cc1 (centres undefined)	-20%
94	Nc1cccnc1Sc1cc(Cl)cc(Cl)c1	-9%
95	CC(C)(C)c1ccccc1NC(=O)Cn1c(=O)cnc2ccccc21	-14%
96	CSc1nc(N)c2c(C)c(C)sc2n1	-5%
97	COc1ccc(C2=CC(c3sccc3C)n3nnnc3N2)cc1 (centres undefined)	-16%
98	CC(C)C[C@@H](COCc1cccc(Cl)c1)N1CCN(C(=O)c2cccc(C(F)(F)F)c2)CCC1=O	-8%
99	COc1cc(C)nc(Oc2ccc(=O)n(C)n2)n1	-4%
100	O=C(Nc1ccccc1N1CCOCC1)c1ccccc1NS(=O)(=O)c1ccc(F)cc1	-3%
101	NC(=O)C1CCN(Cc2nc3ccccc3c(=O)[nH]2)CC1	-1%
102	CN(CC(=O)Nc1ccncc1)S(=O)(=O)c1ccc(Br)cc1	-18%
103	CCCc1ccc(-c2c(C)sc(NC(=O)c3ccnn3C)c2C#N)cc1	?
104	COC(=O)Nc1ccc2[nH]cc(CCNC(C)=O)c2c1	-6%
105	Cc1c(OCc2nn[nH]n2)ccc2c(-c3ccccc3)cc(=O)oc12	13µM*
106	Cc1cc(C)nc(NC(=O)c2cccc([N+](=O)[O-])c2C)n1	-11%
107	CCSc1nnc(N(CCC(=O)O)CCC(=O)O)s1	-6%
108	CC(=O)N1CC=CC1(C)C(=O)NCC1CC1 (centres undefined)	?
109	Cc1cccc(N=c2oc3cc(O)ccc3cc2C(N)=O)c1	?
110	Cc1cccc(/C=N/n2c(C)nnc2C)c1	-4%
111	O=Cc1ccc(Sc2nnc(-c3ccccc3)o2)c([N+](=O)[O-])c1	14µM*
112	CNC(=O)C1(C)C=CCN1C(=O)c1ccccc1 (centres undefined)	-14%&-9%
113	Nc1nc(-c2ccco2)nn1C(=O)c1cccnc1	-5%
114	C=CCc1cccc(/C=N/c2ncn[nH]2)c1O	-10%
115	CCOC(=O)C(C)Oc1ccccc1C1NC(=O)NC(C)=C1C(=O)Nc1ccc(C)c(C)c1 (centres undefined)	-9%
116	Cc1cc(-n2c(=O)c(C#N)cc3c(=O)n4ccccc4nc32)no1	?
117	CCN(CC)C(=O)CSc1ncnc2c1cnn2-c1ccccc1	-16%
118	O=C(Nc1nccs1)c1ccc2nccnc2c1	-30%
119	O=c1[nH]n2c(=O)c3c([nH]c2c1N=Nc1cccc(Cl)c1)CCCC3	16µM*
120	Cc1ccc(N/N=C(/Sc2nnnn2-c2ccccc2)C(=O)c2ccccc2)cc1	-12%

# (list continues)
item	Molecule	HPGD inh
121	O=C(C1CC1)N1CCc2[nH]c3ccccc3c2C1	-8%
122	CCOc1ccccc1C(=O)Nc1cc(Cl)ccc1O	-14%
123	O=C(c1ccc2c(=O)n(Cc3ccco3)c(=S)[nH]c2c1)N1CCN(c2ccccc2)CC1	-3%
124	Cc1nn(-c2ccccc2)c(N2CCCC2)c1/C=N/NC(=O)c1ccccc1O	?
125	CC(C)c1ccc(C2CC(c3ccc(Br)cc3)=NN2C(N)=S)cc1 (centres undefined)	-13%
126	COc1cc(/C=C(/C#N)c2nc3ccccc3[nH]2)ccc1Oc1ncccc1[N+](=O)[O-]	-7%
127	CC(CNC(=O)COc1ccccc1)OC(=O)Nc1ccc(Cl)c(Cl)c1 (centres undefined)	-2%
128	Cc1cccc(NCc2cc(Cl)ccc2O)n1	-28%
129	COC(=O)/C=C1\NCCSC1=O	-13%
130	COCCN1C(=O)N[C@@H](c2cccs2)C(C(=O)OC)=C1C	-5%&-10%
131	CCOC(=O)c1nnc(-c2ccccc2)nc1Oc1ccc(Cl)cc1	-7%
132	CCC(Oc1nc2ccccc2nc1-c1ccccc1NC(C)=O)C(=O)c1ccccc1 (centres undefined)	-23%
133	Cc1cccc(OCCNc2ccc(C(F)(F)F)cc2[N+](=O)[O-])c1	-8%
134	CC1CCN(CC(=O)N2CCCc3c2c(=O)oc2ccc(OCc4ccccc4)cc32)CC1	-21%
135	O=C(Nc1nc2c(s1)CCCC2)Oc1ccccc1	-13%
136	COc1cc(/C=N/NC(=O)C2C3CCCCC32C)cc(Br)c1O (centres undefined)	?

# Assay outcomes (PubChem BioAssay)

# This is a subset; rates above refer to the full screens.
